Bioassay records as filed in PubChem.
KAT2A inh: blocks human GCN5L2 histone acetyltransferase. Q92830. actives 0.21% (n = 390,000). GCN5L2 HAT assay, ThioGlo1 CoA-SH fluorescence. Potency, µM (doses to about 58.9 µM), for the others: at the highest dose activity change, negative = inhibition, actives largely listed as inhibitors
Target sequence (Q92830 whole entry, looked up): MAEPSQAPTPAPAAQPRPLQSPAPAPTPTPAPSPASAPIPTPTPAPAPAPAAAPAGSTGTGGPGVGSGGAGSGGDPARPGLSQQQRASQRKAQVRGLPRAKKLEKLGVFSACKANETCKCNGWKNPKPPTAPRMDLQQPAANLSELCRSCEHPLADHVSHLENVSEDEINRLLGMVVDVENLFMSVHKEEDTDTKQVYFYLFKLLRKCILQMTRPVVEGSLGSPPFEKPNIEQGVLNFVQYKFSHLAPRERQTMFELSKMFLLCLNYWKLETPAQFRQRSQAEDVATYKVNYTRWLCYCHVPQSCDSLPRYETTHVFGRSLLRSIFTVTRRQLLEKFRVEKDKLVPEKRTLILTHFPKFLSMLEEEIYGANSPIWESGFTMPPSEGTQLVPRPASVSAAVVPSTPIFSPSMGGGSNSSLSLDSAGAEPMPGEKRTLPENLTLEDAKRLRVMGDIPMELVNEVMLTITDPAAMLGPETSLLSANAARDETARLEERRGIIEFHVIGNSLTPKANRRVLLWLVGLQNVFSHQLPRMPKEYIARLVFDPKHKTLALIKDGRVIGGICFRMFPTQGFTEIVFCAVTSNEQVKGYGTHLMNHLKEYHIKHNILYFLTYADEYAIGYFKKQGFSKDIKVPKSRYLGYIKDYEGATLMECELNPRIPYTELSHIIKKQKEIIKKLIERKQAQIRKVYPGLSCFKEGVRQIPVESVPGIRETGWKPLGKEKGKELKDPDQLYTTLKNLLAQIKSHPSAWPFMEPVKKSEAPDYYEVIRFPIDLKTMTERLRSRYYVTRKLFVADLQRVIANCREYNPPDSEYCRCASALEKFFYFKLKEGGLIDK
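Titration-based screen in which CoA formation is detected via maleimide probe ThioGlo1 (50uM) turning fluorescent on thiol reaction; substrates H3(1-25) 75uM and acetyl-CoA 70uM, GCN5L2 20nM, 20 min incubation at room temperature.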
N370S GC: inhibits or activates N370S mutant glucocerebrosidase | actives 0.092% (n = 330,000) | Potency, µM (series often up to 59.4 µM), for the others: at the highest dose activity change, negative = inhibition, most hits filed as inhibitors | AID 2101 | N370S GC spleen homogenate, 4MU-glucoside fluorescence | P04062;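 note: 0% = full enzyme activity and -100% = no enzyme basal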
Numbers without * were called inactive; ? = inconclusive; . = no result given; & = joins results of further samples; [ ] = dose if it differs, or a comment. Calls come from the whole dose curve; as a rule, active = well fitted curve in the direction sought with a large enough effect; inconclusive = small, poorly fitted or top-dose-only effect, or another doubt; inactive = no such curve, though single readings can be large; an effect the other way counts as inactive or inconclusive. Unless noted, % is set by controls: 0 for no effect and ±100 for the full control effect; potency is the fitted concentration of half-maximal effect. A portion of the library; most or all hits stand in other tables.

SMILES	KAT2A inh	N370S GC
Fc1ccc(F)c(CN2CCN(c3ncccn3)CC2)c1	-2.8%	-5.7%
C[C@H](CO)N1C[C@H](C)[C@@H](CN(C)S(C)(=O)=O)Oc2ccc(NC(=O)C3CCCCC3)cc2C1=O	-3.8%	.
O=C(COC(=O)CNC(=O)C1CCCCC1)Nc1cc(C(F)(F)F)ccc1Cl	-22.3%	.
COc1ccc2[nH]cc(S(=O)(=O)c3ccc(C(C)C)cc3)c(=O)c2c1	3.8%	1.1%
COc1ccc2oc(=O)cc(C)c2c1	-1.1%	-0.8%
Cc1c(OCC(=O)N2CCC(C(=O)O)CC2)ccc2c3c(c(=O)oc12)CCCC3	-10.5%	0.8%
Cc1ccc(-c2nn(CCC(=O)Nc3cccnc3)c(=O)c3ccccc23)cc1	?	-5.6%
Cc1ccc(/C=C2\SC(=O)N(CCNC(=O)C3CSC4(C)CCC(=O)N34)C2=O)cc1 (stereo not given)	-5.0%	-5.7%
Cc1ccc2[nH]c(C)c(CC(=O)NCc3ccccc3)c2c1	-23.5%	-13.8%
COc1ccc(-c2coc3cc4oc(=O)cc(C)c4cc23)cc1F	-2.8%	-4.9%
O=C(COC(=O)CC(c1ccccc1)c1ccccc1)NCc1ccccc1	-0.7%	-15.7%
CSc1cccc(NC(=O)CN2C(=O)COc3ccc(S(=O)(=O)N4CCOCC4)cc32)c1	-0.7%	-5.0%
CCCOC(=O)CN1C(=O)c2ccccc2C1=O	-0.7%	4.4%[2.35 µM]
O=c1[nH]c(CSc2ccccn2)nc2c1cnn2-c1ccccc1	1.2%	25.6%
Cc1ccc(/C=N/NC(=O)c2ccco2)s1	?	2.0%
Cc1ccc(C(=O)N/C(=C/c2cccnc2)C(=O)N2CCCCCC2)cc1	?	1.6%
Cc1ccc(NC2=C(Cl)C(=O)OC2NC(=O)c2ccccc2)cc1 (stereo not given)	-0.3%	2.0%
CCOC(=O)CNC(=O)N1CCCC(C(=O)c2ccc3c(c2)OCO3)C1 (stereo not given)	-7.9%	-14.9%
O=C1CN(S(=O)(=O)c2ccc(Cl)cc2)c2ccccc2N1	-1.0%	-17.7%
O=C1CN(C(=O)c2ccc(F)c(S(=O)(=O)N3CCOCC3)c2)c2ccccc2N1	-3.1%	-9.0%

Part of the list above, with values under each structure:
Results follow in this order: KAT2A inh	N370S GC
> CCCOC(=O)CN1C(=O)c2ccccc2C1=O
  -0.7%	4.4%[2.35 µM]
> O=c1[nH]c(CSc2ccccn2)nc2c1cnn2-c1ccccc1
  1.2%	25.6%
> Cc1ccc(/C=N/NC(=O)c2ccco2)s1
  ?	2.0%
> Cc1ccc(C(=O)N/C(=C/c2cccnc2)C(=O)N2CCCCCC2)cc1
  ?	1.6%

The listing continues:
SMILES	KAT2A inh	N370S GC
CC(OC(=O)CN1C(=O)NC2(CCCC2)C1=O)C(=O)c1ccc(C(C)(C)C)cc1 (stereo not given)	-0.2%	1.6%
O=C(c1ccc(Cl)c(Cl)c1)N1CCC(O)(CN2CCOCC2)CC1	-4.4%	-6.4%
Cc1occc1C(=O)NCCCc1ccccc1	-7.6%	2.9%
COc1ccc(-n2ncc3c2CC(C)(C)CC3NC(=O)c2ccnn2C)cc1 (stereo not given)	-0.7%	0.0%
COc1cccc(C(=O)Nc2sc3c(c2C(=O)O)CCCC3)c1	?	-2.0%
COc1ccccc1OCC(=O)N1CCCC(Nc2ccc(F)c(F)c2)C1 (stereo not given)	-1.7%	-1.2%
Cc1nn(-c2ccccc2)c2sc(-c3nnc(SCC(=O)O)o3)cc12	-1.6%	4.5%
CC1CC(C)CN(S(=O)(=O)c2cccc(C(=O)N3CCN(c4ccc(F)cc4)CC3)c2)C1 (stereo not given)	-6.4%	.
O=C(Nc1ccccc1Oc1cccnc1)C1CCCN(C/C=C/c2ccccc2)C1 (stereo not given)	-3.5%	-7.3%
O=C(NC1CCC(C(=O)O)CC1)OCc1ccccc1 (stereo not given)	0.1%&6.0%	-11.8%&1.3%
CCOC(=O)c1cn[nH]c1NC(=S)Nc1ccc(OC)cc1	-16.4%	16.1%
COc1ccc(NC(=S)NCCCN2CCCC2)cc1Cl	-5.3%	-3.4%
O=C(Nc1cccc(C(F)(F)F)c1)Oc1ccccc1N1CCOCC1	-1.1%	-0.6%
Cc1c(C(=O)c2ccccc2C(=O)O)sc2ccccc12	-3.5%	-0.8%
COc1ccc(-c2cc(C(=O)N3CCN(S(=O)(=O)c4ccc(C)cc4)CC3)[nH]n2)cc1	-14.1%	-8.2%
O=S1(=O)CCC(NS(=O)(=O)c2cccc3cccnc23)C1 (stereo not given)	0.8%	0.9%
O=C(c1ccc(Cl)c(S(=O)(=O)N2CCCC2)c1)N1CCN(c2ccccc2F)CC1	0.7%	2.7%
Cc1cccn2c(=O)c3cc(C(=O)NC4CCCCC4)c(=N)n(CCN4CCOCC4)c3nc12	-2.7%	-1.7%
O=C(CCNc1ccc(F)cc1)c1ccco1	-4.4%	3.9%
COc1ccc(-c2cnc(C)o2)cc1S(=O)(=O)Nc1ccc(OC(F)(F)F)cc1	22.4%	.
COc1ccc(NC(=O)C2CCC(CNS(=O)(=O)c3ccc4c(c3)C(C)(C)C(=O)N4C)CC2)cc1 (stereo not given)	-3.9%	.
COc1ccc(N2CCN(S(C)(=O)=O)CC2)cc1	0.5%[0.501 µM]	7.4%
COC(=O)CCC/C=C1\SC[C@@H](NC(=O)c2ccccc2)C1NC(C)=O (stereo not given in full)	2.8%	-4.2%
N/C(=N\OC(=O)/C=C/c1ccccc1)c1ccccn1	1.7%	0.2%
Cc1onc(-c2c(Cl)cccc2Cl)c1C(O)c1ccccc1 (stereo not given)	13.5%	-5.7%
CCNC(=S)Nc1ccc(OCc2nc3ccccc3s2)cc1	?	7.1%
CCN(CC)c1nc(N)nc(N(c2ccccc2)c2ccccc2)n1	-3.7%	-7.6%
NC(=O)[C@@H]1CC2(CC(c3cccc(NC(=O)CC(c4ccccc4)c4ccccc4)c3)=NO2)CN1C(=O)[C@@H]1CCC(=O)N1 (stereo not given in full)	-10.7%	-1.1%
CN(C)Cc1cc(C(C)(C)C)c(O)c(C(C)(C)C)c1	-7.3%	-9.1%
Cc1cc(=O)oc2c3c(cc(OCC(=O)NCc4ccncc4)c12)OC(C)(C)CC3	-9.4%	?
Cc1ccc(S(=O)(=O)Nc2cc(-c3ccccc3)nn2C)cc1	-2.0%	8.1%
COc1ccc(OC)c(CNC(=O)Cc2c(C(=O)O)[nH]c3ccccc23)c1	-3.4%	3.4%
COc1cccc(N2CCN(CC(=O)NC3=Nc4ccccc4N=C(C)C3c3ccccc3)CC2)c1 (stereo not given)	-5.9%	7.9%
COc1ccc(S(=O)(=O)Nc2cc(S(=O)(=O)c3ccccc3)c(O)cc2C)cc1	1.0%	5.4%
COc1ccc(OC)c(CCNC(=O)CCc2nnc3ccc(N4CCOCC4)nn23)c1	0.2%	-4.7%
COc1ccc(CNC(=O)CSc2nc3ccc(C)cc3[nH]2)cc1OC	-1.8%	-3.5%
COc1ccc(S(=O)(=O)N2CCC(C(=O)NCc3ccco3)CC2)cc1	-1.7%	3.3%
O=C(CCCn1c(=S)[nH]c2ccccc2c1=O)N1CCN(c2cccc(Cl)c2)CC1	-1.0%	4.5%
Cc1ccc(CCCNC(=O)C2CCC(=O)N(Cc3cccc(F)c3)C2)cc1 (stereo not given)	-1.5%	-7.5%
Cc1cccc(N2CCN(C(=S)c3ccc([N+](=O)[O-])cc3)CC2)c1	-17.3%	2.5%

3 entries already listed, ordered by count of non-hydrogen atoms, rising.
SMILES	KAT2A inh	N370S GC
CN(C)Cc1cc(C(C)(C)C)c(O)c(C(C)(C)C)c1	-7.3%	-9.1%
COc1ccc(NC(=O)C2CCC(CNS(=O)(=O)c3ccc4c(c3)C(C)(C)C(=O)N4C)CC2)cc1 (stereo not given)	-3.9%	.
NC(=O)[C@@H]1CC2(CC(c3cccc(NC(=O)CC(c4ccccc4)c4ccccc4)c3)=NO2)CN1C(=O)[C@@H]1CCC(=O)N1 (stereo not given in full)	-10.7%	-1.1%

Later entries.
SMILES	KAT2A inh	N370S GC
CC1(C)NC(=O)N(CCOCCOc2cccc(Oc3ccccc3)c2)C1=O	-2.2%	6.5%
Cn1c(SCC(=O)c2ccccc2)nnc1-c1cccnc1	-8.2%	2.7%
CCN1CCN(c2ccc([N+](=O)[O-])c(Sc3nc4ccccc4[nH]3)c2)CC1	-4.8%	3.0%
COc1ccccc1N1CCN(C(=O)CNS(=O)(=O)c2ccc(Br)s2)CC1	-17.4%&-12.6%	-2.0%
O=C(CSc1n[nH]c(=O)[nH]c1=O)Nc1cccc(S(=O)(=O)N2CCOCC2)c1	-1.5%	-16.4%
COc1ccc(O)c(C(=O)c2cc(C#N)c(=O)n(-c3c(C)n(C)n(-c4ccccc4)c3=O)c2)c1	-2.6%	-16.8%
Cc1ccc(C)c(N2CCN(c3ccc(N4C(=O)COCC4=O)cc3[N+](=O)[O-])CC2)c1	3.6%	21.1%
CCN1CCN(C(=O)Cn2c(=O)sc3ccccc32)CC1	-5.7%	4.7%
COc1ccc(CCN2C(=O)NC(NC(=O)C(C)(C)C)(C(F)(F)F)C2=O)cc1OC (stereo not given)	25.5%	21.5%
O=c1c2ccccc2ncn1CCCCOc1ccc(Br)cc1	-4.1%	-11.3%
O=C(O)c1ccccc1CSc1nnc2c(n1)[nH]c1ccccc12	-9.2%	-21.4%
COc1cc(C2SCC(=O)N2Cc2ccccc2)ccc1O (stereo not given)	1.1%	-8.4%
CCOC(=O)CNC(=S)SC	1.5%	6.3%
Clc1cccc(CN2CCN(c3nc4nonc4nc3NC3CC3)CC2)c1	-8.2%	12.5%
CCN(CC)S(=O)(=O)c1ccc(C(=O)Nc2nnc(NC(=S)Nc3ccccc3)s2)cc1	-8.9%	-17.6%
COc1ccccc1NC(=O)CN1CCN(CC(=O)Nc2ccc(C)c(F)c2)CC1	-4.8%	?
O=C(Nc1ccc(S(=O)(=O)Nc2nccs2)cc1)c1cc(-c2ccccc2)nc2ccccc12	-23.5%	-1.8%
COc1ccc(CCNC(=O)CCCn2c(=O)c3cccn3c3ccc(F)cc32)cc1OC	-6.0%	.
CCNc1nc(NC(C)C)nc(Oc2ccc(OCCOc3ccccc3)nn2)n1	-1.8%	-2.0%
CN(C)NC(=S)Nc1ccc(Cl)cc1	-1.7%	.
CCS(=O)(=O)N1Cc2ccccc2CC1C(=O)NCC12CC3CC(CC(C3)C1)C2 (stereo not given)	-7.4%	3.4%
O=C(CN1C(=O)C(=O)N(Cc2ccco2)C1=O)Nc1ccccc1	-2.7%	.
CCOC(=O)c1ccc(N2CCOCC2)c(NC(=O)c2nccnc2C(=O)O)c1	-1.4%	-2.1%
O=C(NCc1ccc(Cl)cc1)C1CCN(S(=O)(=O)c2ccc(N3CCCC3=O)cc2)CC1	-3.1%	15.8%
O=C(CCc1ccccc1)Nc1ccc(F)c([N+](=O)[O-])c1	-12.9%	-3.5%
CCc1ccccc1NC(=O)NNC(=O)CCc1ccccc1	2.1%	-9.3%
O=C(COC(=O)c1ccccc1Cl)NC1CCCCCCC1	3.0%	1.2%
COc1ccc(N2C(=O)CN(Cc3ccc(OC)c(OC)c3)C2=S)cc1	-5.3%	-15.2%
CCc1ccc(C2C3=C(CC(C)(C)CC3=O)Nc3c2c(=O)[nH]c2nc(C)nn32)cc1 (stereo not given)	-1.4%	6.6%
CCc1c(C)c2ccc(OCC(N)=O)cc2oc1=O	-3.5%	4.3%
COc1ccc(OC)c(NS(=O)(=O)c2ccc(SC)cc2)c1	-4.1%	4.0%
Cc1ccc(S(=O)(=O)CC(=O)N2CCN(c3nc4c(F)cccc4s3)CC2)cc1	-1.4%	.
O=C(Cn1c(=O)n(-c2ccc(Cl)cc2)c(=O)c2sc3ccccc3c21)NC1CCCC1	-5.8%	.
CC(C)Oc1ccc(C(CC(=O)NCc2ccco2)c2ccccc2)cc1 (stereo not given)	-7.0%	3.8%[12.8 µM]
CC1=C(c2ccc(Cl)cc2)S(=O)(=O)N=C1N1CCC(C(=O)NCCc2ccco2)CC1	-3.8%	.
CCOC(=O)C1(Cc2ccccc2)CCN(Cc2cn(CC(=O)OC)c3ccccc23)CC1	2.0%	-6.1%
CC(=O)C1=C(C)OC(N)=C(C#N)C1c1cccc2ccccc12 (stereo not given)	-17.4%	1.4%
CC(OC(=O)CCCC(=O)Nc1ccccc1)C(=O)c1ccccc1 (stereo not given)	0.4%	-3.0%
CCC1CO/C(=C(\C(Cl)=C(Cl)Cl)[N+](=O)[O-])N1 (stereo not given)	-5.4%	-5.8%
Cc1nc(SCC(=O)NCc2ccco2)[nH]c(=O)c1C	1.5%	0.6%
CC(O)CNc1nc2sc3c(c2c(=O)n1Cc1ccco1)CCCCC3 (stereo not given)	-0.7%	4.7%
CCn1c(SCc2ccc([N+](=O)[O-])cc2)nnc1C(C)NC(=O)c1ccccc1Br (stereo not given)	0.6%	3.9%
Cc1ccc(S(=O)(=O)N(C)C)cc1NC(=O)COC(=O)c1ccc2c(=O)n3c(nc2c1)CCC3	-1.8%	-1.0%
CNC(=O)CO/N=C/c1ccc(N(C)C)cc1	-8.4%	2.5%
Cc1ccccc1OCC(=O)NC1=NCCS1	0.0%	-0.9%
COc1ccc(Cc2nc(-c3cccnc3)no2)cc1OC	?	1.2%
c1ccc(Cc2nn3c(-c4ccncc4)nnc3s2)cc1	-5.8%	9.1%
COc1cccc(C2SCC(=O)N2c2ccc(Cl)cc2)c1OC (stereo not given)	-4.0%	1.4%
O=C(NC1=NCCS1)c1cccc(S(=O)(=O)N2CCc3ccccc32)c1	-8.0%	0.7%
COCCNC(=O)CCn1nc(-c2ccc(Cl)cc2)ccc1=O	-7.7%	15.5%
